2A firefly: FMDV 2A StopGo reporter, firefly signal; HEK cells with a luciferase reporter of 2A StopGo recoding; Potency, µM (doses to about 57.5 µM), for inactives: at the highest dose signal change, negative = less light; 120,000 compounds, 0.23% hits; active = well fitted falling curve with a large enough effect; inconclusive = small, poorly fitted or top-dose-only effect; inactive = no such curve, though single readings can be large or run the other way; also: nearly all actives have a fitted effect of over 60% in size; overnight with compound
2A Renilla: lowers the Renilla signal of an FMDV 2A StopGo reporter; HEK cells with a luciferase reporter of 2A StopGo recoding; Potency, µM (doses to about 57.5 µM), for the others: at the top dose signal change, negative = less light; 120,000 compounds, 0.32% hits; AID 1745857; active means well fitted falling curve with a large enough effect; inconclusive means small, poorly fitted or top-dose-only effect; inactive means no such curve, though single readings can be large or run the other way; also: nearly all actives have a fitted effect of over 55% in size; overnight with compound
* = called active by the depositor; ? = inconclusive; & = joins results of further samples; [ ] = dose if it differs, or a comment. % is scaled to controls: 0 for no effect and ±100 for the full control effect; potency is read from the fitted curve at half-maximal effect. Some of the compounds tested; rates above refer to the full screens.

The first 16 records (preview)
1	CCOc1cc(CNCc2ccco2)ccc1O
2	Cc1ccc2c(=O)cc(C(=O)NCc3ccc4c(c3)OCO4)oc2c1C
3	CCn1c(=O)cc(SCC(=O)NCc2ccc(F)cc2Cl)c2ccccc21
4	Cc1ccc(NC(=O)Cn2cc(S(=O)(=O)Cc3ccccc3)c3ccccc32)cc1C
5	C=C(C)Cn1c(N2CCC(C(N)=O)CC2)nc2c1c(=O)[nH]c(=O)n2C
6	COc1ccccc1C(=O)Nc1c(C(=O)Nc2cc(Cl)ccc2C)sc2nc(C)cc(C)c12
7	Cc1ccc(OCCSc2nc3ccc(NC(=O)c4ccc(F)cc4)cc3s2)cc1
8	CCCCC(=O)OC1=C(C(C)=O)N(Cc2ccccc2)S(=O)(=O)c2ccccc21
9	CCOc1cc(C(=O)OC(C)C(N)=O)ccc1OC (stereo not given)
10	COc1ccc(N2CCN(C(=O)c3ccc4nc(N5CCC(C)CC5)sc4c3)CC2)cc1

Compound	1	2	3	4	5	6	7	8	9	10
2A firefly	7%	-6%	-12%	?	6%	-1%	-1%	2%	-1%	?
2A Renilla	4%	-1%	7%	-12%	1%	9%	-1%	-12%	0%	-3%

11	Cc1nn2c(=O)cc(COC(=O)c3cccc(NC(=O)COc4ccccc4Cl)c3)nc2s1
12	COC(=O)c1ccc(CNC(=O)CC2Sc3ccccc3NC2=O)cc1 (stereo not given)
13	Cc1ccc2nc(C)c(C(=O)N(C)CCOc3ccc(F)cc3)cc2c1
14	Cc1ccccc1Nc1nc(-c2cccc(Cl)c2)c2c(n1)-c1ccccc1OC2
15	CSCCC(NC(=O)c1ccc(C#CC(C)(C)O)cc1)C(=O)O (stereo not given)
16	COc1ccc(C(=O)COc2ccc(C#N)cc2OC)cc1F

Compound	11	12	13	14	15	16
2A firefly	-12%	35%[activator]	-1%	-11%	-3%	7%
2A Renilla	-11%	-6%[1.06 µM]	3%	?	-3%	-5%[1.06 µM]

Main list, repeating the preview:
1	CCOc1cc(CNCc2ccco2)ccc1O
2	Cc1ccc2c(=O)cc(C(=O)NCc3ccc4c(c3)OCO4)oc2c1C
3	CCn1c(=O)cc(SCC(=O)NCc2ccc(F)cc2Cl)c2ccccc21
4	Cc1ccc(NC(=O)Cn2cc(S(=O)(=O)Cc3ccccc3)c3ccccc32)cc1C
5	C=C(C)Cn1c(N2CCC(C(N)=O)CC2)nc2c1c(=O)[nH]c(=O)n2C
6	COc1ccccc1C(=O)Nc1c(C(=O)Nc2cc(Cl)ccc2C)sc2nc(C)cc(C)c12
7	Cc1ccc(OCCSc2nc3ccc(NC(=O)c4ccc(F)cc4)cc3s2)cc1
8	CCCCC(=O)OC1=C(C(C)=O)N(Cc2ccccc2)S(=O)(=O)c2ccccc21

Compound	1	2	3	4	5	6	7	8
2A firefly	7%	-6%	-12%	?	6%	-1%	-1%	2%
2A Renilla	4%	-1%	7%	-12%	1%	9%	-1%	-12%

9	CCOc1cc(C(=O)OC(C)C(N)=O)ccc1OC (stereo not given)
10	COc1ccc(N2CCN(C(=O)c3ccc4nc(N5CCC(C)CC5)sc4c3)CC2)cc1
11	Cc1nn2c(=O)cc(COC(=O)c3cccc(NC(=O)COc4ccccc4Cl)c3)nc2s1
12	COC(=O)c1ccc(CNC(=O)CC2Sc3ccccc3NC2=O)cc1 (stereo not given)
13	Cc1ccc2nc(C)c(C(=O)N(C)CCOc3ccc(F)cc3)cc2c1
14	Cc1ccccc1Nc1nc(-c2cccc(Cl)c2)c2c(n1)-c1ccccc1OC2
15	CSCCC(NC(=O)c1ccc(C#CC(C)(C)O)cc1)C(=O)O (stereo not given)
16	COc1ccc(C(=O)COc2ccc(C#N)cc2OC)cc1F

Compound	9	10	11	12	13	14	15	16
2A firefly	-1%	?	-12%	35%[activator]	-1%	-11%	-3%	7%
2A Renilla	0%	-3%	-11%	-6%[1.06 µM]	3%	?	-3%	-5%[1.06 µM]

17	Cc1cc(NC(=O)C(C)Sc2nnc3c(Cl)cc(C(F)(F)F)cn23)no1 (stereo not given)
18	CCOc1ccc(NC(=O)Cc2coc3cc(C)c(C(C)C)cc23)cc1S(=O)(=O)N1CCCC1
19	Cc1cccc(OCC(=O)NNC(=O)c2ccc3c(c2)NC(=O)C(C)S3)c1 (stereo not given)
20	Cc1nn(C)c(C)c1CCC(=O)Nc1nccs1
21	CCCN(CCC)C(=O)c1cc2c(=O)n3cccc(C)c3nc2n1C
22	CC(C)(C)c1ccc(-c2nnc(SCCOc3ccccc3Cl)n2-c2ccccc2)cc1
23	Cc1cc(N2CCOCC2)nc(N2CCN(C(=O)Nc3ccccc3)CC2)n1
24	COc1ccc(C)cc1NS(=O)(=O)c1c(C(=O)N2CCC(C)CC2)c(C)n(C)c1C

Compound	17	18	19	20	21	22	23	24
2A firefly	-9%	?	7%	8%	2%	?	0%	-7%
2A Renilla	-5%	-6%	-1%[1.06 µM]	-10%	19%	?	-4%	57%[activator]

25	COc1ccc(NC(=O)c2cccc(C)c2)c2cccnc12
26	CCOc1ccc(/C=C/c2nc(C#N)c(NCCCn3ccnc3)o2)cc1
27	CCCNC(=O)NC(=O)CN1CCCN(Cc2ccc(C#N)cc2)CC1
28	COc1ccc(-c2noc(CSc3nnc(C)n3-c3ccc(F)cc3)n2)cc1
29	Cc1ccc2oc(-c3ccc(C)c(NC(=O)C(C)(C)Oc4ccc(Cl)cc4)c3)nc2c1
30	COc1ccc(S(=O)(=O)N(CC(=O)Nc2cccnc2)c2ccc(C)cc2)cc1OC
31	CC1Cc2cc(S(=O)(=O)CCC(=O)NCc3ccc(Cl)cc3)ccc2N1C(=O)C1CC1 (stereo not given)
32	Fc1ccc(OCc2nnc(-c3ccc(Br)cc3)o2)cc1

Compound	25	26	27	28	29	30	31	32
2A firefly	-1%	1%	6%	10%	96%[activator]	1%	23%	47%[activator]
2A Renilla	-4%	-6%	-1%	-2%	-7%	31%[activator]	48%[activator]	50%[activator]

33	Cc1nnc(NC(=O)c2nc(S(=O)(=O)Cc3ccccc3)ncc2Cl)s1
34	COc1ccc2oc(=O)c(C(=O)NC(C)c3ccccc3)cc2c1 (stereo not given)
35	O=C(O)CC1C(=O)NCCN1Cc1c(F)cccc1Cl (stereo not given)
36	Cn1cc(/C=C(\NC(=O)c2ccco2)C(=O)NCCO)c2ccccc21
37	O=C(Nc1ccc(Cl)cc1F)c1cnc2sc(N3CCOCC3)nn2c1=O
38	COC(=O)c1sc(NC(=O)C2CCCCC2)c(C(=O)OC)c1C
39	CCN(CC)CCc1nc(-c2ccccc2)no1
40	NC(=O)CN1c2ccc(F)cc2-c2ccccc2S1(=O)=O

Compound	33	34	35	36	37	38	39	40
2A firefly	-7%	21%	7%	-3%	-5%	24%	-4%	-11%
2A Renilla	?	-11%	-1%	-3%	2%	8%	-9%	-6%

41	O=C(O)CCSc1ccccc1F
42	O=C(c1ccc2c(c1)nc1n2CCCC1)N1CCN(c2ccccc2)CC1
43	CCc1ccccc1N(CC)C(=O)Cn1nc(Cc2ccncc2)c2ccccc2c1=O
44	Cc1ccc(Cl)cc1N1CCN(C(=O)c2cccn3c(=O)c4cc(Cl)ccc4nc23)CC1
45	N#C/C(=C\c1cccc(OCCOc2ccccc2)c1)c1nc2ccccc2[nH]1
46	CC1(C)Cc2ccccc2C(NC(=O)c2ccc(Cl)cc2Cl)=C1C#N
47	CC(C)Cc1nn2c(=O)cc(COC(=O)c3ccc(NC(=O)CCc4ccccc4)cc3)nc2s1
48	Cc1nn(-c2cc(N3CCOCC3)ccc2[N+](=O)[O-])c(=O)c2ccccc12

Compound	41	42	43	44	45	46	47	48
2A firefly	19%	78%[activator]	-18%&-28%	-20%	2%	-2%	10%	28%
2A Renilla	13%	-7%	10%&-9%	-18%	8%	27%	-11%	62%[activator]

49	Cc1ccc2c(CN3CCN(C)CC3)cc(=O)oc2c1
50	O=C(COc1ccc2c(=O)c(-c3ccccc3)coc2c1)N1CCN(c2ccccc2)CC1
51	CCN(CC)S(=O)(=O)c1ccc(OC)c(-n2cnnn2)c1
52	CCCCn1nc(C(=O)Nc2nc(C(C)=O)cs2)c2ccccc2c1=O
53	Oc1cccc(/C=C/c2nc(-c3ccc(F)cc3)cs2)c1
54	O=c1c(Cl)c(Oc2cccc(OCC(F)(F)F)c2)cnn1-c1ccc(C(F)(F)F)cn1
55	Cn1nc(C(=O)NN2C(=O)NC3(CCCCC3)C2=O)c2ccccc2c1=O
56	COc1cccc(-c2nc(CS(=O)(=O)CC(=O)Nc3cccc(C(C)=O)c3)c(C)o2)c1

Compound	49	50	51	52	53	54	55	56
2A firefly	-7%	6%	-19%	5%	249%[activator]	42%[activator]	-4%	?
2A Renilla	-17%	-1%	-15%	5%	0%	-9%	19%	-16%

57	CCOC(=O)c1oc2ccc(CC#N)cc2c1C
58	COc1ccc(-c2nnc(SCC(=O)Nc3ccc(C(C)C)cc3)nc2-c2ccc(OC)c(OC)c2)cc1OC
59	O=C(Cn1ccc2cc(S(=O)(=O)N3CCCCCC3)ccc21)NCc1ccco1
60	Cc1ccc(-c2cc(C(=O)NC3CCCCC3C)c3ccccc3n2)cc1C (stereo not given)
61	C=CC#CC[N+](C)(C)CC#Cc1cccc2ccccc12
62	CCOC(=O)c1c(C)oc2ncn(Cc3noc(-c4cccs4)n3)c(=O)c12
63	Cn1ccnc1C(NC(=O)CNC(c1ccccc1)c1ccccc1)c1ccc(F)cc1 (stereo not given)
64	CCc1cccc(NS(=O)(=O)c2ccc3c(c2)-c2oncc2CO3)c1
65	CCN(CC)C(=O)c1cc(-c2ccc(Cl)cc2)on1
66	COc1ccc(-c2[nH]ncc2C(=O)NCc2ccccc2OC)cc1

Compound	57	58	59	60	61	62	63	64	65	66
2A firefly	157%[activator]	-18%	-2%	7%	4%	-14%	-7%	15%	227%[activator]	0%
2A Renilla	-1%	19%	91%[activator]	15%	-6%	-12%	-2%	266%[activator]	42%[activator]	-2%

Screening data deposited in PubChem by National Center for Advancing Translational Sciences (NCATS).
